TCR act: activates T cell receptor signaling | 330,000 tested, under 10 active | Potency, µM (doses to about 9.22 µM), for inactives: at the highest dose activation of IL-2 secretion, actives largely listed as activators | primary human leukocytes, anti-CD3, IL-2 HTRF, 48 h | AID 504894; note: % of control where 0% means no effect
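Readout: HTRF IL-2, Eu-cryptate/d2 antibody pair, 320nm excitation, 665nm emission. Stimulus: a-CD3 beads, no co-stimulation. Cells: primary human leukocytes. Exposure: 48 hr with compound.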
Giardia kill: kills Giardia lamblia. activity change, % at 7.66 µM, hits read low. actives 0.15% (n = 340,000). Giardia lamblia trophozoite viability. AID 540267; in the data active = activity change below about -80%; inconclusive = between about -30% and that limit;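 note: parasites exposed to compound for two days anaerobically before the ATP read; % is set by controls: 0 for no effect and ±100 for the full control effect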
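Compounds were tested on trophozoites seeded at 100 cells/well and held 48 hrs at 37 deg C anaerobically. An ATP-based luminescent kit measured the remaining live cells.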
MLL CXXC-DNA inh: MLL CXXC-DNA interaction inhibition; AID 2662; Potency, µM (doses to about 115 µM), inactives show at the highest dose activity change, negative = inhibition, actives largely listed as inhibitors; actives 0.037% (n = 290,000); MLL-CXXC / FITC-HOXA9 DNA fluorescence polarization; active = well fitted inhibition curve with a large enough effect in the polarisation, with a control signal flat, not every such curve was filed as active; inconclusive = small, poorly fitted or top-dose-only effect, or effect the other way, or a change in a side signal; inactive = no such curve, though single readings can be large or run the other way; the % refers to the polarisation; note: potency is the fitted concentration of half-maximal effect
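Purified MLL-CXXC (added from a 7 uM solution) was preincubated 5 min at ambient with pinned compounds in 50 mM Tris-HCl pH 7.5, 50 mM NaCl, 1 mM DTT, 0.05% BSA. Fluorescein-labeled HOX-A9 DNA (50 nM solution) followed, 30 min, then polarization read.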
Tb PFK block: T. brucei PFK enzyme inhibition; T. brucei PFK, ADP-Glo luminescence; actives 0.17% (n = 330,000); O15648; Potency, µM (titrated, usually from 57.5 µM), for the others: at the top dose activity, negative = inhibition, hits mostly inhibitors;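 note: potency is the fitted concentration of half-maximal effect; 0% = uninhibited 1x PFK enzyme wells and -100% = no-enzyme wells; nearly all actives have a fitted effect of over 60% in size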
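Activity is normalized to no-enzyme wells (full inhibition) and 1.25 nM enzyme wells (no inhibition). Reaction: 0.5 mM F6P, 0.1 mM ATP, 45 min RT, ADP-Glo luminescence; concentration-response curves fitted and classed by quality.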
AT treatment: candidate therapy for ataxia-telangiectasia. […] A-T fibroblasts, KAP-1 phosphorylation AlphaLISA; neocarzinostatin DNA damage 30 min before lysis. actives 0.19% (n = 320,000). AID 485349. Potency, µM (titrated, usually from 57.5 µM), for inactives: top-dose activation, usual class: activators; note: potency is the fitted concentration of half-maximal effect; % of control where 0% means no effect; nearly all actives have a fitted effect of over 45% in size
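hTERT-immortalized A-T patient fibroblasts ([…]), 500 cells/well in OPTI-MEM, 1% FBS, got compounds for 60 min, then NCS for 30 min at 37C. Lysates were then assayed for phospho-KAP-1 by AlphaLISA (anti-pKAP1 donor, anti-KAP1 acceptor beads), 6 hr at 25C.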
The depositor's hits bear a star; ? = inconclusive; . = no result given; & = joins results of further samples; [ ] = another dose, or the depositor's remark. Unless noted, calls come from the whole dose curve; as a rule, active = well fitted curve in the direction sought with a large enough effect; inconclusive = small, poorly fitted or top-dose-only effect, or another doubt; inactive = no such curve, though single readings can be large; an effect the other way counts as inactive or inconclusive.

1	Cc1cccc(C)c1OCC(C)N (stereo not drawn)
2	CN1Cc2c(N)cccc2C(c2ccccc2)C1 (stereo not drawn)
3	O=C(O)/C=C/C(=O)O
4	Cc1nc2ccccc2c(-c2ccccc2)c1CC(=O)O
5	CN(C)CCOC(c1ccccc1)c1ccccc1 (tested in a mixture with another compound)
6	CC(C)NC[C@H](O)c1ccc(O)c(O)c1
7	O=C(c1ccccc1)c1ccccc1
8	N#Cc1ccc(OCC(O)CN2CCC(C(O)(c3ccccc3)c3ccccc3)CC2)cc1 (stereo not drawn)
assay / entry	1	2	3	4	5	6	7	8
TCR act	14%	2%&6%	-3%	-2%[46.1 µM]	-1%	2%	-10%	0%
Giardia kill	-15	-14&22	10	-11	-5	-24	7	-26
MLL CXXC-DNA inh	0%&-6%	?	.	-1%	1%	-10%&9%	.	11%
Tb PFK block	2%	1%	0%	0%	-3%	-9%	1%	-5%
AT treatment	46%	-8%	-3%	7%	14%	-2%	-3%	0%

9	CC(C)OC(=O)C(C)(C)Oc1ccc(C(=O)c2ccc(Cl)cc2)cc1
10	NC(N)=NC(N)=NCCc1ccccc1
11	COc1cc2c(cc1OC)C(C)=NC1(CCCCC1)C2
12	CCOC(=O)c1cc2c(ccc3ccccc32)oc1=O
13	CCN(CC)CC#CCOC(=O)[C@@](O)(c1ccccc1)C1CCCCC1
14	NC1C2CN(c3nc4c(cc3F)c(=O)c(C(=O)O)cn4-c3ccc(F)cc3F)CC12 (stereo not drawn)
15	O=S(=O)(c1ccc(F)cc1)n1cnc2ccccc21
assay / entry	9	10	11	12	13	14	15
TCR act	-8%	-1%	-2%	0%	.	-1%	2%
Giardia kill	3	-1	14	-1	.	6	-7
MLL CXXC-DNA inh	-5%&4%	-2%	24%	2%	7%	6%	4%
Tb PFK block	0%	-3%	1%	2%	.	1%	-4%
AT treatment	?	-17%	-1%	1%	.	-5%	-1%

Exported with values under each structure: part of the list above.
Value order: TCR act	Giardia kill	MLL CXXC-DNA inh	Tb PFK block	AT treatment
#4 Cc1nc2ccccc2c(-c2ccccc2)c1CC(=O)O
  -2%[46.1 µM]	-11	-1%	0%	7%
#5 CN(C)CCOC(c1ccccc1)c1ccccc1 (tested in a mixture with another compound)
  -1%	-5	1%	-3%	14%
#6 CC(C)NC[C@H](O)c1ccc(O)c(O)c1
  2%	-24	-10%&9%	-9%	-2%
#7 O=C(c1ccccc1)c1ccccc1
  -10%	7	.	1%	-3%
#8 N#Cc1ccc(OCC(O)CN2CCC(C(O)(c3ccccc3)c3ccccc3)CC2)cc1 (stereo not drawn)
  0%	-26	11%	-5%	0%
#9 CC(C)OC(=O)C(C)(C)Oc1ccc(C(=O)c2ccc(Cl)cc2)cc1
  -8%	3	-5%&4%	0%	?
#10 NC(N)=NC(N)=NCCc1ccccc1
  -1%	-1	-2%	-3%	-17%
#11 COc1cc2c(cc1OC)C(C)=NC1(CCCCC1)C2
  -2%	14	24%	1%	-1%
#12 CCOC(=O)c1cc2c(ccc3ccccc32)oc1=O
  0%	-1	2%	2%	1%
#13 CCN(CC)CC#CCOC(=O)[C@@](O)(c1ccccc1)C1CCCCC1
  .	.	7%	.	.

The list is partial, so the mix of outcomes need not match the whole.
